From PubChem BioAssay
BasE inh: BasE siderophore enzyme inhibitors, primary screen, biochemical, Acinetobacter baumannii ATCC 17978, fluorescence polarization; purified BasE, fluorescence polarization binding displacement; inhibition, % (test concentration not listed); 0.1% of 84,000 active;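 active = both replicates above 25% with normal brightness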;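 note: 0% = negative plate control signal and 100% = positive plate control signal; stock transfer was 100 nL into about 30 µL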
LANA-nucl inh: inhibitors of KSHV LANA-nucleosome binding, primary screen, biochemical, fluorescence polarization, FITC-LANA1-23, chicken nucleosomes; FITC-LANA1-23 / chicken nucleosome fluorescence polarization; stronger effect = lower value; 0.3% of 51,000 active; AID 720717, 2013; z-score (no concentration beside the values);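 active = both repeat wells score below -2 in polarization z-score versus plate sample wells, excluding overly bright wells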;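 note: 100 nL library stock added to about 30 µL; numbers are from one replicate; some results filed as inactive read as strong as hits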
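test system = FITC-LANA peptide and chicken nucleosomes | amount = 240 nM purified chicken nucleosomes (480 nM peptide binding sites), final | reagent = 50 nM FITC-LANA1-23 probe | medium = TEN-BT buffer, pH 7.5 | doses = single compound addition by pin transfer, 100 nL per well | timing = 10–45 min, room temperature | detection = fluorescence polarization | repeats = duplicate plates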
* marks the source's active call; other numbers are inactive results; . = not tested or not shown; & = joins results of further samples. This is a subset; rates above refer to the full screens.

Start of the data: the first 3 entries, ahead of the listing:
SMILES	BasE inh	LANA-nucl inh
O=C(N=Nc1c2ccccc2c2nc3no[nH]c3nc12)c1ccccc1O	4.7	-0.4
N=C1SCC(=O)N1c1ccc(Cl)cc1	0.1	-0.36
S=c1[nH]c2ccccc2n1Cc1ccccc1	0.1	.

The whole of this part, from the first entry:
SMILES	BasE inh	LANA-nucl inh
O=C(N=Nc1c2ccccc2c2nc3no[nH]c3nc12)c1ccccc1O	4.7	-0.4
N=C1SCC(=O)N1c1ccc(Cl)cc1	0.1	-0.36
S=c1[nH]c2ccccc2n1Cc1ccccc1	0.1	.
Cc1cc(C(=O)COC(=O)C2=NNC(=O)CC2)c(C)n1-c1ccccc1	-0.7	.
COc1ccc(CN2CCN(C(=O)C3CCC(CNS(=O)(=O)c4ccc(C)cc4)CC3)CC2)c(OC)c1OC (stereo unspecified)	-0.7	0.44
O=C(N/N=C1\CCc2ccccc21)c1ccc(F)cc1	-0.9	.
Cc1ccc(S(=O)(=O)N2CCN(C(=O)[C@@H]3CCCN3C(=O)OC(C)(C)C)CC2)cc1	1.6	.
CCN1CCc2nc3ccccc3c(C(=O)Nc3ccc(NC(C)=O)cc3)c2C1	0.2	.
Cc1c(S(=O)(=O)Nc2ccc(N3CCCCC3)cc2)sc2ccc(Cl)cc12	.	-0.54
N=C1/C(=C/c2ccc(OCc3ccc4c(c3)OCO4)cc2)C(=O)N=C2SC=CN12	-0.4	0.39
CCc1ccc(-c2nc(=S)n(CN3CCN(S(=O)(=O)c4cccs4)CC3)[nH]2)cc1	0.1	.
CN(C)C=Nc1ccc(OC(F)F)c(Cl)c1	-0.3	.
Cc1ccsc1CCNC(=O)CCc1nnc2n(CCc3ccccc3)c(=O)c3ccccc3n12	-0.6	-0.58
C[C@H](NC(=O)C12CC3CC(CC(C3)C1)C2)C(=O)O	0.9	.
O=C(CNC(=O)Cc1ccccc1)NCc1ccco1	1.9	-0.51
CC(C)n1nc(C(=O)O)c2ccccc2c1=O	-1.6	.
Cc1nc2ccccc2nc1CSCc1ccco1	-0.2	-1
CCC(=O)Nc1ccc(N2CCOCC2)cc1	-0.1	-0.51
O=C(CSc1ccc(F)cc1)NCCSc1ccccc1	.	0.25
CCN(CC)S(=O)(=O)c1ccc(N=c2ccccn2C)cc1	-1.8	.
C/C(=N\N)c1ccc(Cl)c(Cl)c1Cl	-8.2	.
O=c1c2c(nc3n1CCCS3)-c1ccccc1CC21CCCC1	0.7	-1.1
CN(CCOC(=O)C1c2ccccc2Oc2ccccc21)Cc1ccccc1	-0.1	.
CN(C)CCNC(=O)c1cc2c(s1)-c1ccccc1OC2	-11	-0.45
CCCNC(=O)CN1C(=O)N(c2ccc(CC)cc2)S(=O)(=O)c2ccccc21	1.8	-0.6
Cc1ccc(SCc2cc(=O)[nH]c(SCC(=O)n3c4ccccc4c4ccccc43)n2)cc1	-2.4	.
C[C@@H]1CC2C3CCC4=CC(=O)C=C[C@]4(C)[C@@]3(F)[C@@H](O)C[C@]2(C)[C@@]1(O)C(=O)CO (stereo partly specified)	1.5	0.1&-0.15
CCCCNC(=O)c1ccc2c(c1)NC(=O)C(C)N2 (stereo unspecified)	-5.5	-3.2*
COc1ccccc1CNc1ccccc1F	0.4	0.84
CC1(C)O[C@@H]2C[C@H]3[C@@H]4CCC5=CC(=O)CC[C@]5(C)[C@@]4(F)[C@@H](O)C[C@]3(C)[C@]2(C(=O)CCl)O1	1.3	0.0025
CC(C)(C)c1cc(C(=O)N2CCN(c3ccc(C(F)(F)F)cn3)CC2)n(Cc2ccc(F)cc2)n1	-0.9	.
Cc1ccc(-c2nn(-c3ccccc3)cc2C(=O)Nc2ccc3c(c2)OCO3)o1	3.4	.
O=C1Nc2ccccc2/C1=N/n1c(-c2ccc(Cl)cc2)n[nH]c1=S	2.3	.
CC1CCN(Cc2nc(N)nc(Nc3ccc(Cl)cc3)n2)CC1	-4.4	.
Cc1cc(C)cc(OC(=O)c2cccnc2)c1	1.4	2.2
CCOc1ccccc1-c1noc(CCCC(=O)Nc2cc(C(F)(F)F)ccc2Cl)n1	-9.1	2.5
COC(=O)/C(=C(/O)CSc1nnc(C)n1C1CCCCC1)c1nc2ccccc2[nH]1	-2.6	.
CCCCC(CC)C1OCC(C)O1 (stereo unspecified)	-0.7	2.4
O=C(/C=C/c1cccs1)NC1CCCC1	0.5	.
COc1ccc2ccc(OC)c(/C=C3/NC(=O)NC3=O)c2c1	1.9	-0.69
NC1=NC(=Nc2ccc(S(N)(=O)=O)cc2)c2ccccc21	0.8	.
COc1ccc(CC(C(=O)O)c2ccccc2)cc1 (stereo unspecified)	-1.5	1.6
O=c1[nH]cnc2c1[nH]c1ccccc12	-2.2	-0.84
N#Cc1ccc(COC(=O)C2=NNC(=O)CC2)cc1	0.4	.
C=CCn1c(C)nnc1SCc1cc(=O)oc2cc(NC(C)=O)ccc12	-1.1	.
CCOC(=O)c1cc2c(oc1=O)c(I)cc1oc3c(c12)CCCC3	2.9	.
CC(O)CNc1nc2ccccc2n1CC(=O)N(Cc1ccccc1)C(C)C (stereo unspecified)	1.0	.
C/C(=N\NC(=O)c1cc(-c2ccccc2Cl)n[nH]1)c1ccco1	-2.4	-0.071
Cc1ccc(C(=O)CNC(=O)C2Cc3ccccc3C(=O)O2)cc1 (stereo unspecified)	-1.0	-0.95
CCCCC/C=C\C/C=C\CCCCCCCCCC(=O)O	2.0	-0.22
COc1cccc(-c2noc(CCC(=O)N(C)C)n2)c1	-1.2	0.03
CCOC(=O)c1cnc(COc2ccc(OC)cc2)[nH]c1=O	1.8	0.057
NC1=NC2(CCCCC2)N(c2ccc(F)cc2)C(N)=N1	2.4	-2.1
CN(CCc1ccccn1)Cc1ccccc1	1.1	0.34
N#CC(C#N)=Cc1c(-c2ccccc2)nc2n1CCS2	1.3	0.43
CC(C)CC(=O)NN	2.9	.

Full records as entered above.
CCOC(=O)c1cnc(COc2ccc(OC)cc2)[nH]c1=O as listed: BasE inh = 1.8; LANA-nucl inh = 0.057
N#CC(C#N)=Cc1c(-c2ccccc2)nc2n1CCS2 as listed: BasE inh = 1.3; LANA-nucl inh = 0.43
CC(C)CC(=O)NN as listed: BasE inh = 2.9; LANA-nucl inh = .

Next part.
SMILES | BasE inh | LANA-nucl inh
O=S(=O)(Nc1ccc2oc3c(c2c1)CCCC3)c1cccc2cccnc12 | 3.1 | 0.32
COc1cccc(-n2c(Cc3cc(=O)[nH]c(=O)[nH]3)nnc2SCC(N)=O)c1 | 1.2 | -0.9
Cc1ccc(-c2ccc3ccccc3n2)o1 | . | -0.92
O=C(Cn1ncc2c(=O)oc3ccccc3c21)N1CCN(Cc2ccccc2)CC1 | -1.6 | -0.02
O=C(NCCC1=CCCCC1)C1CCCN(C(=O)N2CCOc3ccccc32)C1 (stereo unspecified) | 0.7 | -0.3
CCCNS(=O)(=O)c1cccc(C(=O)NCCc2ccccc2)c1 | -2.6 | .
COC(CN=Cc1c(O)[nH]c(=O)[nH]c1=O)OC | 1.9 | .
Cc1nn(-c2ccccc2)c(C)c1/C=N/n1c(=S)[nH]nc(C)c1=O | -0.1 | -1.1
CCN(CC)C(=O)CSc1nnc(-c2ccco2)n1CC1CCCO1 (stereo unspecified) | 0.2 | -1.4
CC(=O)N(CCCN1CCOCC1)Cc1ccncc1 | 1.1 | 0.14
CCOC(=O)C1CCN(C(=O)c2cnn(-c3ccc(OC)cc3)c2C)CC1 | 2.4 | -1.4
Cc1cc(S(=O)(=O)Nc2ccsc2C(N)=O)c(Cl)cc1Cl | 8.0 | .
CCC1(C)NC(=S)N(c2ccccc2)N1 (stereo unspecified) | 1.0 | .
Cc1cc(C(=O)Cn2cnc3ccc(Cl)cc3c2=O)c(C)n1CC1CCCO1 (stereo unspecified) | -0.7 | .
O=S1(=O)CCN2N=C(C3CC3)SC2=N1 | 2.1 | .
Cc1ccccc1/C=N/N=C1/NC(=O)CCS1 | 1.9 | -0.7
O=C(O)c1ccc(CSc2nc3ccccc3[nH]2)cc1 | 1.2 | .
O=C1CSC(c2ccccc2)N1C1CC1 (stereo unspecified) | -0.7 | .
COc1ccc(-c2csc3ncnc(NCCSCc4ccco4)c23)cc1 | -0.1 | .
Cc1cccc(N2CC(c3nc4ccccc4[nH]3)CC2=O)c1 (stereo unspecified) | -8.5 | 2.5
CC(=O)n1nc(-c2ccccc2)nc1N | 0.2 | 0.024
Cc1ccc2c(c1)c1c(n2C)C(O)CCC1 (stereo unspecified) | 1.8 | -0.26
Cc1ccc(NC(=O)C2=C(O)CCn3c2nc2ccccc23)cc1 | 2.6 | 0.95
CC1c2ccsc2CCN1C(=S)NC(=O)c1cccs1 (stereo unspecified) | -2.8 | .
COc1cc(C(=O)NCc2nnc(SCC(=O)NC3CCCCC3)o2)cc(OC)c1OC | 3.4 | 0.46
O=C(CNCCO)N1CCN(S(=O)(=O)c2ccc3ccccc3c2)CC1 | -9.1 | .
CCc1cc(=O)oc2c(C)c(OCC(=O)Nc3ccc4c(c3)OCO4)ccc12 | -0.5 | .
CCOC(=O)N1CCN(C(=O)CN(C)S(=O)(=O)c2cc(Cl)ccc2Cl)CC1 | -1.9 | 0.9
CC(N=c1ccccn1C(=O)Nc1ccc(Cl)c(Cl)c1)c1ccco1 (stereo unspecified) | 1.0 | .
O=C(NC(O)C(=O)c1cccs1)c1ccncc1 (stereo unspecified) | 1.8 | -1.4
COc1ccc(/C=N/N2C(=O)C3C=CC=CC3N=C2C)cc1OC (stereo unspecified) | 1.9 | 0.17
O=C(O)C1CC(=O)N(c2cccc(C(F)(F)F)c2)C1 (stereo unspecified) | -1.6 | .
CCN(Cc1cc(=O)n2c(C)csc2n1)c1ccc(OC)cc1 | -0.7 | 0.87
Cc1ccccc1NC(=O)CS(=O)(=O)c1ccccc1 | 2.6 | -0.25
CC(=O)Nc1cccc(-c2csc(C)n2)c1 | -0.9 | .
CCOCCSc1nnc2n(-c3ccccc3)c(=O)c3ccccc3n12 | -0.4 | .
Cc1nnc(SC(=O)N2c3ccccc3Sc3ccccc32)s1 | -0.6 | .
c1ccc(CC2CCCNC2)cc1 (stereo unspecified) | 0.1 | 0.2
CCOC(=O)Cn1c(=O)c(C(=O)NC(=O)OCC)cn(Cc2ccccn2)c1=O | 1.6 | -0.56
Clc1cc2c(c(CSc3nnc(-c4ccco4)n3-c3ccccc3)c1)OCOC2 | -0.6 | .
Cn1c(O)c(/C=C/c2ccc3ccccc3n2)c(=O)[nH]c1=O | -42 | 2.7
NNC(=O)c1cc2sc(Cl)cc2[nH]1 | 0.1 | -0.62
Cc1cc(-c2ccc(C)c(S(=O)(=O)N3CCN(C4CCCCC4)CC3)c2)n[nH]1 | -27 | -0.17
Cc1cc(C)c2c(N)c(C(=O)NN3CC(=O)N(c4ccccc4)CC3=O)sc2n1 | 1.2 | -0.38
CCOc1cccc2cc(C(=O)N3CCc4ccccc43)c(=O)oc12 | -3.2 | 0.43
CC1=Nc2nc(N3CCCC3)c(C#N)c3c4c(nc(c23)N1)N(c1ccc(S(N)(=O)=O)cc1)C(=O)C4 | 0.7 | .
COC(=O)c1cc(CSc2ncnc3sccc23)oc1C | 1.5 | .
C/C(=N\NC(=O)CSc1ncccn1)c1ccc(C)cc1 | -1.4 | -1.1
Cc1cc(C)nc(NNC(=S)NC2CC3CCC2C3)n1 (stereo unspecified) | -0.2 | .
O=C(Nc1cccc(Br)c1)C1C(c2ccccc2)=C1c1ccccc1 | 0.5 | .

Further structures follow:
SMILES | BasE inh | LANA-nucl inh
CN1c2ccccc2C(C)(C)C12CC(c1ccc(S(=O)(=O)N(C)C)cc1)=NO2 (stereo unspecified) | 2.4 | .
O=C(CSc1ccccc1)Nc1ccncc1 | 6.6 | 0.025
CCOC(=O)N1CCN(C(=O)c2ccc3c(=O)n(CCC4=CCCCC4)c(=S)[nH]c3c2)CC1 | 5.2 | 0.077
S=C=NCCn1ccc2ccccc21 | -0.1 | 1.2
Cc1ccc(C)c(N2C(=O)c3ccc(C(=O)N4CCCN(C)c5nc6ccccc6nc54)cc3C2=O)c1 | 2.6 | .
Cn1c(=O)c(=O)n(C)c2cc(S(=O)(=O)N3CC(=O)N(CCc4ccccc4)C(=O)C3)ccc21 | 0.3 | 0.93
Cc1cc(C(=O)O)c2cc(Br)ccc2n1 | 1.2 | -0.065
CCc1ccccc1NC(=S)N(Cc1ccco1)C(C)c1ccco1 (stereo unspecified) | 0.7 | 1.2
O=C(CN1CCCc2ccccc21)N/N=C/c1ccccc1 | 0.1 | 1
O=C(O)CCc1ccc(-c2ccccc2)n1-c1cccc(O)c1 | -0.3 | .
Cc1ccccc1C(=O)CC#N | 0.5 | .
CCC(=O)Nc1ccc(C2=CSC3=NS(=O)(=O)CCN23)cc1 | -1.4 | .
O=C(O)/C=C/C(=O)Nc1ccc(OC(F)F)cc1 | 3.4 | .
COc1ccc(OC)c(NC(=O)c2ccc(CSc3nnnn3C)cc2)c1 | -0.5 | -0.95
CC1(C)CC(=O)C2=C(C1)N=C1SCCC(=O)N1C2c1ccc(Br)cc1 (stereo unspecified) | -1.9 | .
CCOC(=O)c1cnc2c(F)ccc(F)c2c1Oc1cccnc1 | 1.0 | -0.68
